Screening results: PubChem BioAssay, National Center for Advancing Translational Sciences (NCATS)
VDR inh: inhibitors of human vitamin D receptor | actives 0.93% (n = 400,000) | VDR-SRC2-3 peptide fluorescence polarization, 2 h | Potency, µM, for the others: max response, negative = inhibition, usual class: inhibitors | P11473; active means well fitted inhibition curve with a large enough effect; inconclusive means small, poorly fitted or top-dose-only effect, or another doubt; inactive means no such curve, though single readings can be large or run the other way; further: series mostly up to about 120 µM
Target sequence (P11473 whole entry, looked up): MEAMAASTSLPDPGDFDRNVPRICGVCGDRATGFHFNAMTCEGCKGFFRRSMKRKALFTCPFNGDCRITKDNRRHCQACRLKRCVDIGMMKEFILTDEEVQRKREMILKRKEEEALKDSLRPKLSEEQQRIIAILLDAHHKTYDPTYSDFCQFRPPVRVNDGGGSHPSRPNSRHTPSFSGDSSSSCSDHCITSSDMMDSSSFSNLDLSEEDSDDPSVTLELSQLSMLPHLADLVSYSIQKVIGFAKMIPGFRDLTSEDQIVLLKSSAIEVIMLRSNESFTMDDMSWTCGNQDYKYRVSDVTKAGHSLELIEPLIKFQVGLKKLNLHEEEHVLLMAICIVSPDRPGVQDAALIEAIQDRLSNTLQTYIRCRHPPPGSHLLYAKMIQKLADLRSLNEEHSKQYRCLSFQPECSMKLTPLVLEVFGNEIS
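Fluorescence polarization assay of small-molecule disruption of VDR binding to coregulator peptide SRC2-3. Compounds and controls pin-transferred, then read after 2 h incubation at ambient room temperature.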
* marks the source's active call; other numbers are inactive results; ? = inconclusive; & = joins results of further samples; [ ] = remark or other dose. On the % scale 0 is the no-effect control and ±100 the full control effect; potency means the concentration at half of the fitted maximal effect. These rows are one share of the data (hit frequency here may not be typical).

compound	VDR inh
Cc1cc(NC(=O)CCN2CCN(C/C=C/c3ccccc3)CC2)ccc1Br	1%
CN(C(=O)c1ccc(NC(=O)Cc2ccc([N+](=O)[O-])cc2)cc1)C1CC1	-12%
COC(=O)c1sccc1NC(=O)Nc1cccc(F)c1	0%
CCNCCCNCCCCNCCCNCC	6%
C=CC[C@@H](CC(=O)N(CCO)Cc1ccccc1)C(=O)N[C@@H](COC(=O)[C@@H](CC=C)Cc1ccc(F)cc1)Cc1c[nH]c2ccccc12	14%
COc1cc2c(cc1OC)C(C(=O)Nc1cc(OC)c(OC)c(OC)c1)C(c1cccnc1)N(C)C2=O (configuration not stated)	6%
COc1ccc(N(CC(=O)N/N=C/c2ccc(F)cc2)S(=O)(=O)c2ccccc2)cc1	8%
O=C(NCCc1ccccc1)c1ccc(CS(=O)(=O)Cc2ccccc2Cl)o1	-5%
Cc1sc2ncnc(OCC(=O)N3CCN(S(=O)(=O)c4ccc(Cl)cc4)CC3)c2c1C	-4%
Cc1nc(=O)cc(-c2ccccc2)n1-c1ccccc1	2%
O=C(COC(=O)CCc1ccccc1)NC1CCS(=O)(=O)C1 (configuration not stated)	-12%
Cc1cc2oc(=O)c(CC(=O)O)c(C)c2c2occ(-c3ccccc3)c12	5%
CCCC(=O)Nc1nnc(SCc2cc(=O)c3cc(C)ccc3[nH]2)s1	0%
CCCCCOc1ccc(CSCCNC(=S)Nc2ccccc2)cc1	-12%
O=C(/C=C/c1ccco1)NC(=S)Nc1ccc(N2CCCC2)cc1	-20%
Cc1cccnc1NC(=O)c1ccc(Br)o1	5%
COc1ccc(C(=O)OCC(=O)N2CCCC2=O)c(OC)c1	1%
CC1CCCCN1S(=O)(=O)c1ccc(S(=O)(=O)N2CCN(c3ccc(F)cc3)CC2)cc1 (configuration not stated)	19%
COCCNC(=O)C1CC2Cn3c(nc4ccccc43)C2N1C (configuration not stated)	-16%
CC(Sc1nnc(-c2ccccc2)c(-c2ccccc2)n1)C(=O)NCC1CCCO1 (configuration not stated)	4%
CCOC(=O)c1[nH]c2ccc(OC)cc2c1NS(=O)(=O)c1ccc(OC)cc1OC	10%
CCn1c2c(c3cc(OCC(C)C)ccc31)CCCC2=O	3%
O=C(COC(=O)c1ccccc1NC(=O)c1ccccc1)c1cccc([N+](=O)[O-])c1	-7%
O=C(CN(CCN1CCOCC1)C(=O)Cn1nnc(-c2ccc(F)cc2)n1)NC1CCCCC1	4%
Cc1nc2nc(C)c(NS(=O)(=O)c3ccc4c(c3)CCCC4)c(=O)n2[nH]1	-12%
O=C(NNC(=O)C1CC1)c1cc2cc3ccccc3nc2s1	-6%
C/C(CC(=O)Nc1ccc(Cl)cc1Cl)=N\NC(=O)C(=O)N1CCCC1	-15%
COC(=O)c1sc(N2C(=O)C(O)=C(C(=O)c3ccc(C)o3)C2c2ccc([N+](=O)[O-])cc2)nc1C (configuration not stated)	?
CC[C@]12c3[nH]c4cc(CCC(=O)N(C)C)ccc4c3CCN1C(=O)[C@@H](CC(=O)NCc1ccc(OC)c(OC)c1)C[C@@H]2C(=O)N1CCN(C(=O)c2ccco2)CC1	-19%
Fc1ccc2c(c1)C(c1ccncc1)=NNC(c1ccc(Cl)cc1)=N2	2%
COc1ccc(CN(C)C(=O)COC(=O)c2c(C)nn(-c3ccc(F)cc3)c2Cl)cc1	2%
COc1cccc(C(=O)NCC(c2ccc(N(C)C)cc2)N2CCc3ccccc32)c1OC (configuration not stated)	12%
CCc1cccc(C)c1NC(=O)Cn1ccn(-c2cccc(OC)c2)c(=O)c1=O	11%
CCCN1CCN(CCNC(=O)Nc2ccc(OC)cc2OC)CC1	6%
CCP(=O)(CC)C(C)(C)CP(=O)(c1ccccc1)c1ccccc1	15%
Cc1ccccc1C(=O)c1c[nH]c(C(N)=O)c1	-10%
Cn1c(=O)n(C/C=C/c2ccccc2)c(=O)c2c1nc1n2CCN1c1ccc(F)cc1	13%
CCOC(=O)c1cc(-c2ccccc2)n(CC(=O)NCc2ccccc2)c1C	22%
COc1cc(NC(C)=O)c2ncccc2c1[N+](=O)[O-]	0%
CC(CCOS(N)(=O)=O)c1ccccc1 (configuration not stated)	-9%
O=C(COC(=O)C1COc2ccccc2O1)NC(=O)NC1CCCCC1 (configuration not stated)	2%
COC(=O)CSc1ccc(S(=O)(=O)N2CCOCC2)cc1[N+](=O)[O-]	2%
Cc1ccc(C(=O)CN(CCCC(N)=O)S(=O)(=O)c2ccc([N+](=O)[O-])cc2)cc1	-27%
CN(c1ccc(O)cc1)c1nc(O)c(C2=c3ccccc3=NC2=O)s1	-19%
COC(=O)c1ccc(NC(=O)CSc2n[nH]c(-c3ccccc3)n2)cc1	9%
CC1CCCCC1NC(=O)CN1C(=O)CSc2cc(S(=O)(=O)N3CCCCCC3)ccc21 (configuration not stated)	-2%
O=C1C(=O)N(C2CCN(C(=O)c3ccc(Cl)cc3)CC2)CCN1Cc1ccc(F)cc1	6%
O=C(O)CNC(=O)C1(N2C(=O)c3ccccc3C2=O)CCCC1	-4%
CCOC(=O)Cc1ccc(NC(=O)NCc2ccc3c(c2)CCN3C(=O)CC)cc1	5%
CN(/C(=N/S(=O)(=O)c1cccs1)c1ccccc1)c1ccccc1	-3%

Additional entries:
compound	VDR inh
O=C1OCC(Cn2c3ccccc3c3ccccc32)O1 (configuration not stated)	-10%
CCOC(=O)N1CCN(Cc2cc(=O)oc3ccc(Cl)cc23)CC1	3%
Cc1ccc(NC(=O)N2CCCCCC2)c(C)c1	-10%
Cc1cc(C)cc(-n2c(C)cc(C=C(C#N)C#N)c2C)c1	0%
C=C1C(=O)OC2C1CCC(C)C1C=CC(=O)C12C (configuration not stated)	-11%
COc1ccc(CC(=O)Nc2c3c(nn2-c2cccc(C)c2C)CS(=O)C3)cc1 (configuration not stated)	0%
O=C(N/N=C/c1ccc(OC(=O)c2cccs2)cc1)c1ccccn1	-11%
COc1cc(/C=N/NC(=O)CSc2ccccn2)ccc1OC(C)C	-17%
CCCCN(CCCNC(=O)CN1N=C(c2ccccc2)CCC1=O)c1ccccc1	3%
COc1cc2c(=O)n(CCCN3CCOCC3)c(=S)[nH]c2c(OC)c1OC	12%

Look-ups from the list:
CCCCN(CCCNC(=O)CN1N=C(c2ccccc2)CCC1=O)c1ccccc1 – VDR inh = 3%
C=C1C(=O)OC2C1CCC(C)C1C=CC(=O)C12C (configuration not stated) – VDR inh = -11%
O=C1OCC(Cn2c3ccccc3c3ccccc32)O1 (configuration not stated) – VDR inh = -10%
COc1ccc(CC(=O)Nc2c3c(nn2-c2cccc(C)c2C)CS(=O)C3)cc1 (configuration not stated) – VDR inh = 0%
COc1cc2c(=O)n(CCCN3CCOCC3)c(=S)[nH]c2c(OC)c1OC – VDR inh = 12%

(listing goes on)
compound	VDR inh
CN(C1CCCCC1)S(=O)(=O)c1cccc(C(=O)OCC(=O)NC2CCCc3ccccc32)c1 (configuration not stated)	-4%
O=C(Nc1ccc(Cl)cn1)C1C(c2ccccc2)C1(Cl)Cl (configuration not stated)	19%
CCC(Oc1ccccc1F)C(=O)Nc1ccc2c(c1)n(C)c(=O)n2C (configuration not stated)	13%
Oc1ccc(Cl)cc1C1=NNC(c2ccc(Cl)cc2)C1 (configuration not stated)	?
Cc1ccc(S(=O)(=O)NC(=NC2CCCCC2)c2ccccc2)cc1	-15%
Cc1ccc(S(=O)(=O)N2[C@@H](c3ccc(Cl)c(Cl)c3)C(C(=O)O)=C[C@H]2CC2CCCC2)cc1	-28%
Cc1cc(C)n(-c2ccc(C(=O)Oc3ccc4c(c3)OCO4)cc2)n1	8%
Cc1ccc(OC(C)C(=O)NCC2(N3CCOCC3)CCCCC2)cc1C (configuration not stated)	7%
CCOn1c(=O)c[n+]([O-])c2ccccc21	-7%
O=C1NC(=O)/C(=C/c2ccc(-c3cc(C(=O)O)ccc3Cl)o2)S1	-21%

Five records drawn at random from the list so far, as already listed:
compound	VDR inh
CC1CCCCC1NC(=O)CN1C(=O)CSc2cc(S(=O)(=O)N3CCCCCC3)ccc21 (configuration not stated)	-2%
Cc1sc2ncnc(OCC(=O)N3CCN(S(=O)(=O)c4ccc(Cl)cc4)CC3)c2c1C	-4%
CN(c1ccc(O)cc1)c1nc(O)c(C2=c3ccccc3=NC2=O)s1	-19%
COc1ccc(CC(=O)Nc2c3c(nn2-c2cccc(C)c2C)CS(=O)C3)cc1 (configuration not stated)	0%
CCCN1CCN(CCNC(=O)Nc2ccc(OC)cc2OC)CC1	6%

Continued.
compound	VDR inh
CCOC(=O)c1cnc(N2CCN(C(=O)OCC)CC2)[nH]c1=O	-1%
O=C(NCCCN1CCCC1)c1ccc2c(c1)N(Cc1ccc(F)cc1)C(=O)c1ccccc1S2=O (configuration not stated)	8%
CCOC(=O)C(C(=O)NCCCN1CCOCC1)C1CCCCC1 (configuration not stated)	-4%
O=c1[nH][nH]c(C(F)(F)F)c1C=NCc1ccc(Cl)cc1	-5%
Cc1nn(-c2ccccc2)c(Oc2ccc(F)cc2)c1/C=N/n1cnnc1	0%
CCN(CC)C(=O)C1c2ccccc2Oc2ccccc21	-19%
Cc1ccc(/C=N/n2nnnc2N)cc1	-8%
COc1ccccc1OC(C)C(=O)N(Cc1ccco1)C1CCS(=O)(=O)C1 (configuration not stated)	-3%
O=S(=O)(NCC1CCCO1)c1ccc(Cl)cc1 (configuration not stated)	10%
CC(Sc1nnnn1C)C(=O)Nc1ccc2c(c1)OCCO2 (configuration not stated)	-16%
CCNC(=O)c1nc[nH]c1C(=O)NCC	-10%
Cn1c(N)c(C(=O)c2cc(-c3ccccn3)nc3ccccc23)c(=O)[nH]c1=O	3%
Cc1cccc(OCc2nnc(SCC(=O)N(c3ccccc3)C3CCS(=O)(=O)C3)o2)c1 (configuration not stated)	-20%
c1ccn2c(SCc3ccc4c(c3)OCO4)nnc2c1	8%
COc1ccc(C(C)=O)cc1CSc1ccc2c(c1)OCCO2	-5%
O=c1[nH]c(C2CCN(S(=O)(=O)Cc3ccccc3)CC2)nc2c1nnn2Cc1cccc(Cl)c1	1%
COC(=O)C1CC1[C@H](NC(=O)c1cccnc1)c1ccccc1 (some centres not stated)	-11%
O=C(CCN1CCOCC1)c1ccccc1	-53%
CCC(C)NCCOCCOc1ccc(Br)cc1C (configuration not stated)	16%
Cc1cc(=O)[nH]c(SCc2cc(Cl)ccc2OC(F)F)n1	-7%
COc1ccc(/C=N/N2CCN(C3c4ccccc4-c4ccccc43)CC2)cc1O	-27%
COc1ccc(C(=O)Cn2c(Br)nc3c2c(=O)n(C)c(=O)n3C)cc1	6%
COC(=O)c1cc(S(=O)(=O)NCC2CCN(CCc3ccc(OC)cc3)CC2)c[nH]1	14%
Cc1cccc[n+]1CC(=O)N1c2ccccc2Sc2ccccc21	-7%
O=C(O)c1ccc(CNC(=O)c2ccc(Br)o2)cc1	-12%
CCN(CC)S(=O)(=O)c1ccc(N2CCCC2)c(NC(=O)CC(C)(C)C)c1	-4%
Cc1cc(C(=O)CN2C(=O)C(=O)N(C3CCCC3)C2=O)c(C)n1CCc1ccccc1	-9%
COCCOc1nc2ccccc2nc1C	3%
CCN(c1ccccc1)S(=O)(=O)c1ccc(C(=O)Nc2ccncc2)cc1	-13%
O=C(Nc1ccc(NC(=O)c2ccccc2Cl)nc1)c1ccncc1	15%
O=C(CSc1cccc(C(F)(F)F)c1)NC(=O)NCc1ccco1	-8%
C=CCn1c(C)cc(C(=O)CSc2nnc(NC(C)C)s2)c1C	15%
CCCc1ccc(C(=O)COC(=O)CN2C(=O)NC3(CCCCC3C)C2=O)cc1 (configuration not stated)	5%
CCOc1ccc(-c2nc(SCC(=O)c3ccccc3)n[nH]2)cc1	-2%
COc1ccc2sc(NC(C)=O)nc2c1	-4%
N#Cc1ccc(OCc2nnc3n2CCCCC3)cc1	-2%
CCOc1ccc2nc(Cl)c(CN(C(=O)c3cnccn3)C3CCCC3)cc2c1	6%
S=C(NCC1(c2ccccc2)CCCC1)Nc1ccccc1	-12%
CC(C)(O)C#Cc1ccc(C(=O)N2CCN(c3ccc([N+](=O)[O-])cc3)CC2)cc1	-15%
CC(C)NC(=S)N1CCCN(c2ncccc2[N+](=O)[O-])CC1	9%
c1coc(CNc2nc3ccccc3s2)c1	4%
CCOc1ccccc1C(=O)Nc1ccsc1C(=O)OC	5%
CC(=O)N/C(=C\c1ccccc1)C(=O)OCc1ccc(C)cc1	123%[activator]
COc1ccc(C(=O)Nc2c(C(=O)c3ccc(F)cc3)oc3ccccc23)cc1	1%
Cc1cc(N2CCN(Cc3ccccc3)CC2)n2nc(C)c(-c3ccccc3)c2n1	0%
Cc1cc(C(=O)NNC(=O)Nc2ccccc2)no1	-16%
CCCCN1CC(COCc2ccccc2)Oc2cccc(N3CCCC3)c2S1(=O)=O (configuration not stated)	-2%
O=c1[nH]c2ccccc2c2ccccc12	7%&-1%
CCOc1ccc(NC(=O)Nc2nnc(CC)s2)cc1	5%
COc1ccccc1CC(=O)Nc1cccc(F)c1	-4%

Continued.
compound	VDR inh
O=C(CCN1C(=O)/C(=C/c2cccs2)SC1=S)N1CCCCC1	-4%
Cc1ccc(C2=NC3(CCCCCC3)NC2=S)cc1	-7%
COc1cc(C(=O)NCCOc2cccc(C)c2)c(Br)c(OC)c1OC	-12%
COC(=O)c1ccc(NC(=O)CSc2nncc3ccc(OC)c(OC)c23)cc1	-12%
O=C(N/N=C/c1ccccn1)c1cc(-c2ccc(Br)cc2)nc2ccccc12	-8%
CCCCN1C[C@H](COC(=O)CCC)Oc2cccc(F)c2S1(=O)=O	1%
CC1(NC(=S)Nc2ccccc2)CCS(=O)(=O)C1 (configuration not stated)	-10%
